D2 PAM = potentiates the human D2 dopamine receptor allosterically; P14416; DiscoveRx D2 beta-arrestin cells, luminescence, 90 min; 100% = 57 uM dopamine signal; potentiation, % (no concentration beside the values); 0.23% of 360,000 active; AID 624464; active = potentiation of 50% or more; inconclusive = 30% to 50%; inactive = 30% or less;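 also: compound concentration not given in the record; tested on top of an EC20 dose of dopamine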
Target sequence (P14416 whole entry, looked up): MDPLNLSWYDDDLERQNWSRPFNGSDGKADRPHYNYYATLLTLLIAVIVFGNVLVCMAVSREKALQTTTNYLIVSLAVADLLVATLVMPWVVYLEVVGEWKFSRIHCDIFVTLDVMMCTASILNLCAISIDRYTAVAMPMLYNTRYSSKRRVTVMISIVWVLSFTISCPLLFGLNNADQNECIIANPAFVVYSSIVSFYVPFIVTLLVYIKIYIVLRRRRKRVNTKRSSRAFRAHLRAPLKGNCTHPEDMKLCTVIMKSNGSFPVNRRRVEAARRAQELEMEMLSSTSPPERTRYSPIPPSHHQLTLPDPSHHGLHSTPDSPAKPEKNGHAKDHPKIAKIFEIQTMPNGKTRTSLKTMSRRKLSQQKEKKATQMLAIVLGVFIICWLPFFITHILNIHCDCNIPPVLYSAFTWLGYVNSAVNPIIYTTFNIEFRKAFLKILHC
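D2 cells co-treated with compound plus 50 nM dopamine (EC20) for 90 min at 37 deg C to detect potentiation. Beta-arrestin recruitment was read as enzyme-fragment luminescence after 1 h at ambient temperature. Full response was set by 57 uM dopamine.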
PINK1 expr mod = PINK1 expression modulation; PINK1 immunofluorescence, high-content cytometry, 24 h; Potency, µM (titrated, usually from 76.6 µM), without a hit: at the top dose activation (PINK1 increase), most hits filed as activators; 0.2% of 410,000 active; AID 624263; active = well fitted activation curve with a large enough effect; inconclusive = small, poorly fitted or top-dose-only effect; inactive = flat fitted curve, though single readings scatter; cell line not stated here;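 also: potency is read from the fitted curve at half-maximal effect; % of control where 0% means no effect; nearly all actives have a fitted effect of over 65% in size; a mitochondrial uncoupler was the plate control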
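Stable cell line, 250 cells/well, 12 h attachment; compounds pinned at 5 concentrations, 24 h; CCCP control. Fixed with nuclear dye, primary antibodies 12 h at 10 degrees C, secondary plus cell stain; laser-scanning cytometer read.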
TRPML1 inh = inhibitors of human TRPML1 channel; TRPML1-inducible cells, Ca2+ dye fluorescence, FDSS; active compounds read low; inhibition of EC80 agonist-evoked calcium signal; activity change, negative = inhibition, % (concentration not given with the values); 0.02% of 390,000 active; in the data active means activity change below about -50%; inconclusive means about -30% to -50%; inactive means above about -30%;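 also: stimulus is agonist 54-4 at its EC80 concentration; % is scaled to controls: 0 for no effect and ±100 for the full control effect; the text of the record puts the active cut at -80%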
Target sequence (Q9GZU1 whole entry, looked up): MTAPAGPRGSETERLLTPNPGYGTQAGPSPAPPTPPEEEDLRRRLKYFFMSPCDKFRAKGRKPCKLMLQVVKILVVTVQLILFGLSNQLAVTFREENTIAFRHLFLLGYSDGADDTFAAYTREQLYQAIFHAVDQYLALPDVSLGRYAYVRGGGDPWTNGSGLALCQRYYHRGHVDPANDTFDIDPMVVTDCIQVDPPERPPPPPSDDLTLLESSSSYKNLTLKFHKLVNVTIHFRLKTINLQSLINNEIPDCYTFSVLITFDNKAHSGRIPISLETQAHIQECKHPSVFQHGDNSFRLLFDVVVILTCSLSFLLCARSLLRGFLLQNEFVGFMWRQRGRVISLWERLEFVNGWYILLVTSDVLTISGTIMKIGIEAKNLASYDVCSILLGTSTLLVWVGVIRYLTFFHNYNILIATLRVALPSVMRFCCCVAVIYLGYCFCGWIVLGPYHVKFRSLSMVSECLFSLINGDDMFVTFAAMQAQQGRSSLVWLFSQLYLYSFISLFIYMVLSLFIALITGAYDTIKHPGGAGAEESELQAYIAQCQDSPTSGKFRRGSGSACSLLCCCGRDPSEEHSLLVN
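Calcium fluorescence in TRPML1-DL cells induced overnight with Tet: a 110 s read after compound pin addition, then a 110 s antagonist read after challenge with 54-4 at 4 uM final (EC80).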
TRPML1 agonist = agonists of human TRPML1 channel; Q9GZU1; TRPML1-expressing cells, Ca2+ dye fluorescence, FDSS; host cell line not named in the record; reference of the full effect not given here; activation, % (test concentration not listed); 0.12% of 410,000 active; in the data active = activation above about 50%; inconclusive = about 30% to 50%; inactive = below about 30%; also: 0% is about no effect; the text of the record puts the active cut at 80%
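Tet-induced TRPML1-DL cells, 1,500 per well, cultured overnight, were loaded with a no-wash Ca2+ dye for 45–90 min. Calcium fluorescence was recorded on the FDSS for 110 s after compound addition, before the EC80 agonist (4 uM 54-4) was added.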
Six1-Eya2 inh = blocks human Six1 binding to Eya2; Q15475+O00167; AlphaScreen GST-Six1/His-Eya2 binding, biochemical; active compounds read low; control for the full effect not named in the record; activity change, % (test concentration not listed); 0.56% of 360,000 active; AID 651725; in the data active = activity change below about -65%; inconclusive = about -30% to -65%; inactive = above about -30%; also: % is scaled to controls: 0 for no effect and ±100 for the full control effect
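AlphaScreen with GST-Six1 and His-Eya2 (5X mix: 250 nM and 500 nM), glutathione donor and nickel acceptor beads; buffer 50 mM Tris pH 8.0, 300 mM NaCl, 1 mM TCEP; 1 h at 37 C in the dark.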
D2 ag = human D2 receptor agonism in beta-arrestin assay | P14416 | DiscoveRx PathHunter D2 beta-arrestin, luminescence, 90 min; 100% = 57 uM dopamine signal | activation, % (concentration not given with the values) | 0.084% of 360,000 active; in the data active = activation above about 40%; inconclusive = about 15% to 40%; inactive = below about 15%; also: compound concentration not given in the record; the text of the record calls up to 30% inactive
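Agonist mode: compounds alone added to overnight-plated D2 PathHunter cells for 90 min at 37 C, with 57 uM final dopamine (EC100) defining full response. Beta-arrestin recruitment detected by chemiluminescent reagent, read after 1 h at ambient temperature.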
An asterisk follows results filed as active; ? = inconclusive; . = no result given.

nr	molecule	D2 PAM	PINK1 expr mod	TRPML1 inh	TRPML1 agonist	Six1-Eya2 inh	D2 ag
1	CCN1CCN(c2oc(COc3ccc(Cl)cc3)nc2C#N)CC1	-17	3.4%	33	0.4	-19	-3.0
2	O=C(Cc1cccc(C(F)(F)F)c1)NCC(=O)Nc1cc(Cl)ccc1Cl	-10	3.0%	-2	0.2	-1	1.1
3	CCOc1ccc(NC(=O)NC(C)CC)cc1 (stereo not given)	-4	-2.8%	9	0.5	-19	-1.3
4	Cc1ccc(C(C(=O)NC2CCCC2)N(C(=O)c2csnn2)C2CCCC2)o1 (stereo not given)	-9	4.0%	5	0.0	-3	-4.6
5	Cc1c(O)ccc(NS(=O)(=O)c2ccccc2)c1C	-2	1.1%	-11	-0.3	0	-0.4
6	COC(=O)CCCNC(=O)CC1C(=O)NCCN1Cc1ccoc1 (stereo not given)	-8	-0.7%	0	0.6	0	-2.6
7	COc1ccc2cc(S(=O)(=O)NCc3cccnc3)ccc2c1	-7	4.0%	17	-0.6	4	-2.6
8	CC(=O)c1ccc(OC(=O)Cc2cccc3ccccc23)cc1	-4	1.9%	-10	0.3	9	-3.1
9	N#Cc1nc(COc2ccccc2)oc1N1CCCCC1	-5	1.7%	-7	1.9	-21	-0.2
10	Nc1cccc(CP(=O)(c2ccccc2)c2ccccc2)c1	-1	0.8%	7	2.1	3	0.6
11	CCN(C(=O)c1ccc2c(c1)OCO2)C1CCS(=O)(=O)C1 (stereo not given)	-15	1.3%	16	0.4	-6	-2.3
12	CC(c1ccccc1)N1CCc2[nH]c(=S)[nH]c(=O)c2C1 (stereo not given)	-2	-0.3%	2	-0.2	-1	8.0
13	CCCCN(C(=O)c1cc(-c2ccncc2)nc2ccccc12)c1c(N)n(CC(C)C)c(=O)[nH]c1=O	-7	-1.0%	-2	0.1	1	-3.5
14	COc1cc(/C=N/Nc2ccnc(=O)[nH]2)ccc1O	-6	-0.2%	.	.	?	-6.7
15	COc1ccc(-c2cc3nc(C)c(CCC(=O)N4CCN(c5ccc(F)cc5)CC4)c(C)n3n2)c(OC)c1	.	2.2%	-6	-0.4	.	.
16	O=C(O)C1CCCN(C(=O)/C=C/c2ccccc2)CC1 (stereo not given)	-6	-0.7%	-4	0.3	12	-0.1
17	O=C(O)c1cccc(-c2nnn(Cc3ccccc3)n2)c1	9	-0.6%	-10	-0.2	1	-2.7
18	CC(C)(C)NC(=O)CC(CC(=O)O)c1ccccc1 (stereo not given)	-5	1.2%	-16	-0.2	10	2.6
19	O=C(O)c1ccc(NC(=O)c2ccc(COc3ccc(Cl)cc3)o2)cc1	15	1.9%	.	.	-7	-1.3
20	NC1=NC(=O)/C(=C/c2ccccc2OCC(=O)Nc2ccc(F)cc2)S1	-6	12%	4	-0.5	2	-1.6
21	CSCCNC(=O)Nc1c(-c2c(Cl)cccc2Cl)noc1C	-15	-1.3%	9	-0.9	5	-3.8
22	CCOc1cccc(-c2ccc3nncn3c2)c1	-3	0.0%	.	-0.5	5	-4.2
23	Cc1nn(S(=O)(=O)c2ccc(Cl)cc2)c(C)c1S(=O)(=O)N1CCCCCC1	.	3.3%	-14	-0.4	.	.
24	O=C(COc1ccccc1)Nc1cc2c3c(c1)CC(=O)N3CCC2	-7	2.3%	8	0.3	-5	-0.8
25	COc1cc(C(=O)NCC2CCCO2)ccc1OCc1ccccc1 (stereo not given)	-4	0.0%	-2	-0.5	8	-2.6
26	CC1CC(O)(CC(O)(c2ccccc2)c2ccccc2)C(C)CN1C (stereo not given)	-6	0.3%	16	-0.2	1	-3.6
27	CCCNC(=O)c1ccc(-n2c(-c3ccccc3)cc3c2CCCCC3)cc1	.	9.2%	14	0.7	.	.
28	O=C1CC(c2ccccc2)c2ccc(O)cc2O1 (stereo not given)	1	2.8%	0	0.2	-2	-2.9
29	N#Cc1ccc(Oc2cccc3cccnc23)c([N+](=O)[O-])c1	-1	-0.4%	13	8.1	-6	1.2
30	Cc1ccc(-n2ncc3c(SCC(=O)Nc4cc(C)on4)ncnc32)c(C)c1	-5	6.2%	17	2.5	7	-2.3

nr	molecule	D2 PAM	PINK1 expr mod	TRPML1 inh	TRPML1 agonist	Six1-Eya2 inh	D2 ag
31	O=C(COC(=O)C1=COCCO1)Nc1cccc(Oc2ccccc2)c1	-10	0.5%	7	-0.7	0	-3.9
32	Cc1ccc(NC(=O)Cn2c(=O)ccc3cc(S(=O)(=O)N4CCC(C)CC4)ccc32)c(C)c1	.	-2.7%	-2	0.5	.	.
33	Cc1ccc(Cn2c(CCCNC(=O)C3CCCCC3)nc3ccccc32)cc1	.	-0.5%	46	1.5	.	.
34	CCOCCCNC(=S)N1C2CCC1CC(NC(=O)NC1CCCCC1)C2 (stereo not given)	7	.	-8	0.8	5	-1.5
35	Cc1ccc(O)c(/C=N/NC(=O)c2[nH]ncc2Br)c1	-21	0.6%	0	-1.0	-6	-0.6
36	Cc1nnc(SCC(=O)Nc2cccc(N)c2)n1-c1ccccc1	2	0.4%	13	1.2	-21	6.3
37	CC(NC(=O)NC(=O)c1ccc(F)cc1)C1CC1 (stereo not given)	-1	3.3%	3	-0.7	-1	1.3
38	O=C(CSc1nc2c(cnn2-c2ccccc2)c(=O)[nH]1)N1N=C(c2cccs2)CC1c1ccc(F)cc1 (stereo not given)	-7	0.4%	0	0.4	7	-6.2
39	O=C1CC(N2CCN(Cc3ccc(Cl)cc3)CC2)C(=O)N1CCc1ccccc1 (stereo not given)	-9	0.7%	-13	0.0	5	3.6
40	COc1ccc(C(=O)Nc2nncs2)cc1S(=O)(=O)N1CC(c2ccccc2)CC1=O (stereo not given)	-2	3.2%	15	1.1	-10	-0.3
41	CCN(C(=O)COC(=O)CCC(=O)c1ccccc1)c1c(N)n(Cc2ccccc2)c(=O)[nH]c1=O	-2	-0.2%	-5	0.2	-1	-1.4
42	O=C(Cn1cnc2cc([N+](=O)[O-])ccc2c1=O)N1CCN(S(=O)(=O)c2ccccc2)CC1	15	-1.5%	-12	-0.5	-26	3.7
43	O=C(c1ccccc1)N1CCN(CC(O)COc2ccc(Br)cc2)CC1 (stereo not given)	-47	-0.8%	-11	-0.3	-1	-0.2
44	CN(C)C(=O)Cn1c(=O)n(S(=O)(=O)c2ccccc2)c2ccccc21	-1	0.0%	2	0.1	0	1.4
45	C=CCOC(=O)/C(=C\C=C\c1ccccc1)NC(=O)c1ccccc1	-10	1.5%	14	0.5	0	2.0
46	CN1CCCC(C(=O)Nc2cccc(Cl)c2)CC1 (stereo not given)	-11	1.7%	-14	0.7	5	-2.1
47	CC1(C(=O)Nc2ccc3c(c2)OCCO3)CCN1C(=O)C1(c2ccc(Cl)cc2)CCC1 (stereo not given)	4	0.0%	16	-0.4	-17	0.8
48	O=C1c2ccc([N+](=O)[O-])cc2S(=O)(=O)N1Cc1ccccc1	72*	3.9%	5	0.4	-3	?
49	COC(=O)c1ccc(CSc2nc3c([nH]c4ccccc43)c(=O)n2-c2ccc(OC)cc2)o1	.	-2.1%	16	1.4	.	.
50	COc1cccc(CNC(=O)c2ccc(CS(=O)Cc3ccc(C)cc3)o2)c1 (stereo not given)	1	0.3%	-11	-0.3	-1	0.0
51	O=C(CCS(=O)(=O)Cc1ccccc1)Nc1nncs1	-2	3.3%	-2	-0.1	-6	8.1
52	Cc1c(OCC(=O)N2C[C@H]3C[C@@H](C2)c2cccc(=O)n2C3)ccc2c3c(c(=O)oc12)CCC3	-24	1.6%	.	.	24	-4.9
53	Cc1cccn2c(=O)c(C=O)c(Nc3ccc(S(N)(=O)=O)cc3)nc12	-6	15%	-5	-0.9	-16	-1.2
54	CCOC(=O)N1CCN(C(=O)c2c(C)nn(-c3cccc(C)c3)c2-n2cccc2)CC1	.	0.2%	-16	-0.3	.	.
55	Cc1ccc(OCCC(=O)Nc2ccc(C)c(S(=O)(=O)N3CCOCC3)c2)cc1	-4	1.7%	7	-0.7	-8	-3.8
56	CCN(CC(=O)Nc1ccc2c(c1)OCCO2)C(=O)c1cc(Cl)nc2ccccc12	-8	2.0%	6	-0.3	-9	-3.0
57	CC(=O)Nc1ccc(S(=O)(=O)N2CCN(C(=O)c3ncoc3-c3ccc(C)cc3)CC2)cc1	-16	0.3%	-1	-0.5	0	-3.9
58	CC(=O)N1CC(C)Oc2ccc(S(=O)(=O)NC(CC(=O)O)c3ccc(C)cc3C)cc21 (stereo not given)	-3	0.2%	-11	0.3	20	-1.1
59	COC(=O)c1ccc(CSc2nnc(NC(C)C)s2)o1	-4	1.1%	-9	-0.6	-12	2.9
60	Cn1c(C(=O)N[C@@H](Cc2ccccc2)C(=O)O)cc2cc(Cl)ccc21	-2	-1.0%	-5	0.6	5	2.0

2 neighbouring records already listed, for reference:
nr	molecule	D2 PAM	PINK1 expr mod	TRPML1 inh	TRPML1 agonist	Six1-Eya2 inh	D2 ag
31	O=C(COC(=O)C1=COCCO1)Nc1cccc(Oc2ccccc2)c1	-10	0.5%	7	-0.7	0	-3.9
32	Cc1ccc(NC(=O)Cn2c(=O)ccc3cc(S(=O)(=O)N4CCC(C)CC4)ccc32)c(C)c1	.	-2.7%	-2	0.5	.	.

Compounds shown so far that contain a COOH group:
nr	molecule	D2 PAM	PINK1 expr mod	TRPML1 inh	TRPML1 agonist	Six1-Eya2 inh	D2 ag
16	O=C(O)C1CCCN(C(=O)/C=C/c2ccccc2)CC1 (stereo not given)	-6	-0.7%	-4	0.3	12	-0.1
17	O=C(O)c1cccc(-c2nnn(Cc3ccccc3)n2)c1	9	-0.6%	-10	-0.2	1	-2.7
18	CC(C)(C)NC(=O)CC(CC(=O)O)c1ccccc1 (stereo not given)	-5	1.2%	-16	-0.2	10	2.6
19	O=C(O)c1ccc(NC(=O)c2ccc(COc3ccc(Cl)cc3)o2)cc1	15	1.9%	.	.	-7	-1.3
58	CC(=O)N1CC(C)Oc2ccc(S(=O)(=O)NC(CC(=O)O)c3ccc(C)cc3C)cc21 (stereo not given)	-3	0.2%	-11	0.3	20	-1.1
60	Cn1c(C(=O)N[C@@H](Cc2ccccc2)C(=O)O)cc2cc(Cl)ccc21	-2	-1.0%	-5	0.6	5	2.0

(continued)
nr	molecule	D2 PAM	PINK1 expr mod	TRPML1 inh	TRPML1 agonist	Six1-Eya2 inh	D2 ag
61	COc1ccc(OC)c(C2/C(=C(/O)c3cnn(-c4ccccc4)c3C)C(=O)C(=O)N2CCN(C)C)c1 (stereo not given)	0	0.9%	8	-0.6	-2	0.8
62	CCCN(CCC)C(=O)Cn1c(=O)n(CCCCC(=O)NC2CCCC2)c(=O)c2ccccc21	-24	0.7%	-5	-0.4	-1	-2.4
63	CC(C)C(=O)Nc1cccc(C(=O)N2CCCCC2C)c1 (stereo not given)	-12	-0.4%	6	0.4	21	-0.5
64	Cc1ccc(NC(=O)OCCN2CCN(S(=O)(=O)c3ccc(C)cc3)CCC2=O)cc1	-8	-0.6%	1	-0.7	0	-0.2
65	O=C(Cc1cccs1)Nc1ccccc1F	-6	1.5%	2	-0.9	-8	-0.8
66	CN(C)C1=NCC(CSC(=N)N)S1 (stereo not given)	-1	0.8%	-5	0.3	11	-3.0

Screening results: PubChem BioAssay, National Center for Advancing Translational Sciences (NCATS)
